Vaccinia stage: blocks a specific stage of Vaccinia orthopoxvirus infection, primary screen, cell-based, single point. Vaccinia-infected cells, mCherry/Venus stage reporter fluorescence; hits give low values; some inactives read as strong as hits. activity change (mCherry), % (concentration not given with the values). 89,000 compounds, 0.01% hits;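 active = mCherry past -33% and 40 or more points under the early reporter, replicates agreeing; inconclusive = past -33% without that gap or agreement; tested in A549 cells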;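 note: scaled between vehicle wells and reference inhibitor wells; 23 nL library stock went into each well; one replicate is shown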
Vaccinia stage Venus: also measured in Vaccinia stage; calls as there; activity change (Venus), %; measured here: Venus reporter, other viral stage;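 negative = less Venus signal; first of two replicates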
An asterisk follows results filed as active; ? = inconclusive; . = no result given; & = joins results of further samples.

SMILES	Vaccinia stage	Vaccinia stage Venus
CCNC(=O)Nc1ccc2c(c1)C(=O)N(C)[C@H]1CC[C@@H](CC(=O)N[C@@H](C)c3ccccc3)O[C@H]1CO2	3.1	6.4
O=S(=O)(N[C@H]1CC[C@@H](CCn2cc(-c3cccc(F)c3)nn2)O[C@@H]1CO)c1ccc(F)cc1	-16.3	-12.0
C[C@@H]1CN([C@H](C)CO)C(=O)c2cc(NS(=O)(=O)c3ccccc3)ccc2O[C@H]1CN(C)C(=O)Nc1ccc2c(c1)OCO2	12.7	6.2
CN1c2ccc(C3=CCCCC3)cc2[C@@H]2[C@@H](CCN2C(=O)C2CCC2)[C@@H]1CO	?	.
O=C(c1ccc2c(c1)OCO2)N1C[C@H]2[C@@H](c3ccccc31)[C@H](CO)N2CC1CCCC1	10.1	7.7
CC=Cc1ccc2n(c1=O)C[C@@H]1[C@@H](CO)[C@H](C(=O)Nc3ccc(-c4ccccc4)cc3)[C@H]2N1CC (mixture of isomers)	?	.
N#Cc1ccc(-c2ccc([C@@H]3[C@@H](CO)N4C(=O)CN(C(=O)Cc5ccccc5)C[C@H]34)cc2)cc1	-3.0	-10.7
O=C(NCc1cccc(F)c1)[C@@H]1[C@@H](CO)[C@@H]2Cn3c(cccc3=O)[C@H]1N2C(=O)c1cnccn1	-4.1	-3.8
CCS(=O)(=O)N1CCCCN2[C@H](C1)[C@@H](c1ccc(C#Cc3ccccn3)cc1)[C@@H]2CO	15.7	12.0
Cc1ccc(S(=O)(=O)NCC[C@@H]2CC[C@@H](NC(=O)CC3CC3)[C@@H](CO)O2)cc1	-0.8	10.3
CN1C(=O)c2cc(NC(=O)NC3CCCC3)ccc2OC[C@@H]2O[C@@H](CC(=O)NCC3CC3)CC[C@@H]21	41.4	38.9
CN(C)CC#Cc1ccc([C@@H]2[C@@H](CO)N3C(=O)CN(C(=O)Cc4cccnc4)C[C@@H]23)cc1	16.1	8.2
COCC#Cc1cnc2c(c1)C(=O)N([C@H](C)CO)C[C@H](C)[C@@H](CN(C)S(C)(=O)=O)O2	8.9	8.5
CN1CCN(C(=O)C[C@H]2C[C@H]3c4cc(NC(=O)NC5CCCC5)ccc4O[C@H]3[C@H](CO)O2)CC1	6.6	3.7
NCC[C@@H]1CC[C@H](NC(=O)c2ccccc2F)[C@H](CO)O1	10.5	3.5
CC(=O)N(C)C[C@H]1Oc2ncc(C#CCC3CCCC3)cc2C(=O)N([C@@H](C)CO)C[C@@H]1C	0.3	3.7
C[C@H](CO)N1C[C@H](C)[C@H](CN(C)S(=O)(=O)c2ccccc2)Oc2ccc(NC(=O)NC3CCCCC3)cc2C1=O	-6.8	-10.2
Cc1cccc(S(=O)(=O)N2CCCCN3[C@H](CO)[C@@H](c4ccc(C#CC5CC5)cc4)[C@H]3C2)c1	?	.
Cc1noc(C)c1NC(=O)NCC[C@H]1CC[C@H](NC(=O)Nc2cccc(F)c2)[C@@H](CO)O1	-22.7	-26.3
O=C(N[C@@H]1CC[C@H](CCNS(=O)(=O)c2cccc(Cl)c2)O[C@H]1CO)c1ccc(F)cc1	-2.6	4.0
CO[C@H](CN(C)Cc1cc(F)ccc1F)[C@@H](C)CN([C@H](C)CO)S(=O)(=O)c1ccc(Cl)cc1	-11.4	-2.4
COCC(=O)N1CCC2(CC1)CN[C@@H](CO)c1c2c2ccc(OC)cc2n1C	-6.0	-6.5
Cc1noc(C)c1S(=O)(=O)N(C)C[C@H]1Oc2c(NC(=O)c3ccc(-c4nccs4)cc3)cccc2C(=O)N([C@@H](C)CO)C[C@H]1C	?	.
C[C@@H]1CN([C@@H](C)CO)C(=O)c2cc(NC(=O)Nc3ccccc3)ccc2O[C@@H](C)CCCCO[C@@H]1CN(C)C(=O)NC1CCCCC1	14.9	16.3
O=C1CN(S(=O)(=O)c2cccc(F)c2)C[C@@H]2[C@@H](c3ccc(C4=CCCC4)cc3)[C@H](CO)N12	-13.4	-4.6
SMILES	Vaccinia stage	Vaccinia stage Venus
C[C@H]1CN([C@@H](C)CO)C(=O)c2cc(NC(=O)Nc3ccc4c(c3)OCO4)ccc2O[C@@H]1CN(C)Cc1ccc(C(F)(F)F)cc1	17.5	4.6
C[C@@H](NC(=O)C[C@@H]1C=C[C@@H](NC(=O)CN2CCOCC2)[C@H](CO)O1)c1ccccc1	4.0	7.4
C[C@@H]1CN([C@H](C)CO)C(=O)Cc2cc(NC(=O)Nc3cccc4ccccc34)ccc2O[C@@H]1CN(C)S(=O)(=O)c1ccc(F)cc1	6.7	9.1
O=C(NCc1ccccc1)[C@@H]1[C@@H](CO)[C@@H]2Cn3c(cccc3=O)[C@@H]2N1C(=O)C1CC1	-7.0	3.0
O=C(C[C@@H]1CC[C@@H]2[C@H](COC[C@H](O)CN2C(=O)c2ccncc2)O1)NCc1cccc(F)c1	3.4	10.4
O=C(C[C@H]1CC[C@@H]2[C@H](COC[C@H](O)CN2C(=O)Nc2ccccc2)O1)NCCc1ccncc1	1.6	5.6
C[C@H]1CN([C@@H](C)CO)S(=O)(=O)c2ccc(/C=C/c3ccccc3)cc2O[C@H]1CN(C)Cc1ccc(C(=O)O)cc1	-22.4	-15.9
C[C@@H]1CN([C@H](C)CO)S(=O)(=O)c2ccc(C#CCN(C)C)cc2O[C@@H]1CN(C)C(=O)C1CCCCC1	-20.1	-11.7
COc1cccc(S(=O)(=O)N[C@@H]2CC[C@@H](CC(=O)NC3CCC3)O[C@H]2CO)c1	-7.6	1.2
C[C@H](CO)N1C[C@H](C)[C@H](CN(C)C(=O)NC2CCCCC2)Oc2ccc(NC(=O)NC3CCCCC3)cc2C1=O	4.4	5.5
O=C(Nc1ccc2c(c1)[C@@H]1C[C@H](CC(=O)N3CCOCC3)O[C@@H](CO)[C@@H]1O2)NC1CCCC1	18.6	12.5
COc1ccc(S(=O)(=O)N[C@H]2CC[C@H](CC(=O)O)O[C@@H]2CO)cc1	4.2	0.9
C[C@H](CO)N1C[C@H](C)[C@H](CN(C)C(=O)Nc2ccc(F)cc2)OCCCC[C@H](C)Oc2ccc(NC(=O)Nc3ccc(F)cc3)cc2C1=O	8.0	0.5
CC(C)NC(=O)N(C)C[C@@H]1Oc2ccc(NC(=O)C3CCCCC3)cc2C(=O)N([C@@H](C)CO)C[C@H]1C	7.8	0.5
CNC[C@H]1OCCCC[C@@H](C)Oc2ccc(NS(=O)(=O)c3ccc(OC)cc3)cc2C(=O)N([C@H](C)CO)C[C@H]1C	7.7	3.6
O=C(Nc1ccc(Cl)c(Cl)c1)N[C@H]1CC[C@@H](CCNC(=O)c2ccc(F)cc2)O[C@@H]1CO	-12.7	3.7
C[C@H]1CN([C@@H](C)CO)C(=O)c2ccccc2-c2ccccc2CO[C@@H]1CN(C)S(=O)(=O)c1cccs1	2.0	2.4
C[C@@H]1CCCCO[C@H](CN(C)Cc2ccc(C(=O)O)cc2)[C@@H](C)CN([C@H](C)CO)C(=O)c2cc(NC(=O)Nc3ccccc3)ccc2O1	21.6	16.9
C[C@@H]1CN([C@@H](C)CO)S(=O)(=O)c2ccc(-c3ccc(C(=O)N(C)C)cc3)cc2O[C@@H]1CN(C)Cc1ccc2c(c1)OCO2	?	.
O=C(N[C@H]1C=C[C@@H](CC(=O)N2CCc3ccccc3C2)O[C@H]1CO)C1CCC1	1.9	6.3
CO[C@H]1CN(C)C(=O)c2cc(NC(=O)c3cnccn3)ccc2OC[C@H](C)N(C(=O)C2CC2)C[C@H]1C	1.6	4.7
COc1cccc(-c2ccc(C3[C@H]4CNC[C@@H]3N4Cc3ccc(F)cc3)cc2)c1 (stereo partly drawn)	-11.8&-24.5	-6.9&-23.9
CN(C)C(=O)C[C@@H]1CC[C@@H](NC(=O)C2CCOCC2)[C@@H](CO)O1	5.0	7.7
CC(=O)N(C)C[C@@H]1Oc2ncc(C#CC3(O)CCCC3)cc2C(=O)N([C@@H](C)CO)C[C@H]1C	16.8	14.5
COc1ccc(NC(=O)N(C)C[C@H]2Oc3c(NC(=O)Nc4ccc(F)cc4)cccc3C(=O)N([C@H](C)CO)C[C@@H]2C)cc1	6.2	8.8
SMILES	Vaccinia stage	Vaccinia stage Venus
COc1ccccc1-c1ccc([C@H]2[C@@H](CO)N3CCCCN(C(=O)c4ccncc4)C[C@@H]23)cc1	12.1	7.5
N#C[C@@H]1[C@H](c2ccc(C3=CCCCC3)cc2)[C@H](CO)N1C(=O)C1CCOCC1	-34.5	-23.1
Cn1cnc(S(=O)(=O)N2C[C@H](O)COC[C@H]3O[C@H](CC(=O)NCc4cc(F)cc(F)c4)CC[C@@H]32)c1	6.7	4.7
COc1ccc2c3c(n(C)c2c1)[C@@H](CO)N(C(=O)Nc1ccc(F)cc1)CC31CN(C(=O)NC2CCCC2)C1	-14.0	-13.9
C[C@H](CO)N1C[C@H](C)[C@H](CN(C)CC2CC2)Oc2ccc(NC(=O)c3ccncc3)cc2CC1=O	0.4	5.3
Cc1noc(C)c1NC(=O)N(C)C[C@@H]1Oc2ccc(NC(=O)Nc3ccc(C(F)(F)F)cc3)cc2CC(=O)N([C@H](C)CO)C[C@H]1C	12.8	16.5
C[C@@H]1CN([C@H](C)CO)S(=O)(=O)c2ccc(/C=C/c3ccccc3)cc2O[C@@H]1CN(C)C(=O)Nc1cc(F)ccc1F	?	.
C[C@@H]1CN([C@@H](C)CO)C(=O)c2cccc(NS(=O)(=O)c3ccccc3)c2O[C@@H]1CN(C)CC1CC1	-11.7	-4.3
C/C=C/c1ccc([C@@H]2[C@H](CO)N(Cc3cncnc3)C23CN(C(=O)CC2CC2)C3)cc1	13.9	11.6
COC(=O)C[C@H]1CC[C@@H]2[C@@H](COc3ccc(NC(=O)c4cc(C)on4)cc3C(=O)N2C)O1	12.6	16.8
CN(C)C(=O)c1ccc(-c2cccc(-c3nc(C(=O)NC4CCCCC4)cc4c3[C@@H](CCO)N([S@](=O)C(C)(C)C)C4)c2)cc1	-51.0*	-5.9*
CO[C@H]1CC[C@@H]2CCOc3ccc(C#N)cc3C(=O)N(C)CCCC(=O)N(C)C[C@@H]1O2	11.3	6.2
COc1ccc(NC(=O)Nc2ccc3c(c2)CC(=O)N([C@@H](C)CO)C[C@@H](C)[C@H](CN(C)Cc2ccc(C(=O)O)cc2)O3)cc1	9.7	12.7
C[C@H]1CN([C@@H](C)CO)C(=O)Cc2cc(NC(=O)Nc3ccc4c(c3)OCO4)ccc2O[C@@H]1CN(C)Cc1ccc(-c2ccccc2)cc1	-33.7	-24.7
CCCC#Cc1ccc([C@H]2[C@H](CO)N3C(=O)CN(C(=O)NCCC)C[C@@H]23)cc1	11.3	10.7
C[C@@H](NC(=O)C[C@@H]1C=C[C@H](NC(=O)c2cccnc2)[C@@H](CO)O1)c1ccccc1	6.7	9.9
C[C@H](O)C#Cc1cnc2c(c1)C(=O)N([C@H](C)CO)C[C@@H](C)[C@H](CN(C)Cc1ccccn1)O2	29.9	11.6
CS(=O)(=O)Nc1ccc2c(c1)[C@H]1C[C@@H](CC(=O)NCc3ccccc3F)O[C@@H](CO)[C@H]1O2	-0.2	2.9
CC(=O)N(C)C[C@@H]1Oc2cc(C#CC3(O)CCCC3)ccc2S(=O)(=O)N([C@@H](C)CO)C[C@@H]1C	11.7	12.6
COCC(=O)N1CC2(CCN(S(C)(=O)=O)CC2)c2c(n(C)c3cc(OC)ccc23)[C@@H]1CO	6.6	5.1
CN(C)CCCNC(=O)C[C@H]1C=C[C@H](NC(=O)Cc2cccnc2)[C@H](CO)O1	2.8	5.7
C[C@H](CO)N1C[C@H](C)[C@H](CN(C)C(=O)C2CC2)Oc2cc(Br)ccc2S1(=O)=O	6.4	8.5
C[C@@H]1CN([C@@H](C)CO)C(=O)c2cc(C3=CCCC3)cnc2O[C@H]1CN(C)Cc1ccc(C(=O)O)cc1	25.1	9.6
C[C@H](CO)N1C[C@H](C)[C@@H](CN(C)C(=O)Nc2cccc3ccccc23)OCCCC[C@H](C)Oc2ccc(NS(C)(=O)=O)cc2C1=O	25.9	12.4
CO[C@H]1CN(C)C(=O)c2ccc(NS(C)(=O)=O)cc2OC[C@H](C)N(C(=O)C2CCOCC2)C[C@@H]1C	4.0	9.9

Quoted at random: 7 records from the list.
SMILES	Vaccinia stage	Vaccinia stage Venus
C[C@@H]1CN([C@H](C)CO)C(=O)c2cc(NS(=O)(=O)c3ccccc3)ccc2O[C@H]1CN(C)C(=O)Nc1ccc2c(c1)OCO2	12.7	6.2
C[C@@H]1CN([C@@H](C)CO)C(=O)c2cc(C3=CCCC3)cnc2O[C@H]1CN(C)Cc1ccc(C(=O)O)cc1	25.1	9.6
N#Cc1ccc(-c2ccc([C@@H]3[C@@H](CO)N4C(=O)CN(C(=O)Cc5ccccc5)C[C@H]34)cc2)cc1	-3.0	-10.7
CCS(=O)(=O)N1CCCCN2[C@H](C1)[C@@H](c1ccc(C#Cc3ccccn3)cc1)[C@@H]2CO	15.7	12.0
O=C1CN(S(=O)(=O)c2cccc(F)c2)C[C@@H]2[C@@H](c3ccc(C4=CCCC4)cc3)[C@H](CO)N12	-13.4	-4.6
O=C(N[C@H]1C=C[C@@H](CC(=O)N2CCc3ccccc3C2)O[C@H]1CO)C1CCC1	1.9	6.3
COC(=O)C[C@H]1CC[C@@H]2[C@@H](COc3ccc(NC(=O)c4cc(C)on4)cc3C(=O)N2C)O1	12.6	16.8

(next part)
SMILES	Vaccinia stage	Vaccinia stage Venus
C[C@H](CO)N1C[C@H](C)[C@@H](CN(C)C(=O)Nc2ccc(C(F)(F)F)cc2)Oc2ccc(NS(=O)(=O)c3cn(C)cn3)cc2C1=O	27.8	11.4
CC(C)NC(=O)N1[C@H](CO)[C@H](c2ccccc2)C12CN(C(=O)Cc1ccccc1)C2	-7.2	4.1
C[C@H](CO)N1C[C@H](C)[C@H](CN(C)C(=O)Nc2ccc3c(c2)OCO3)Oc2cc(C#Cc3cccnc3)ccc2S1(=O)=O	1.4	-8.0
CN1CCN(C(=O)C[C@@H]2CC[C@@H](NC(=O)Cc3ccccn3)[C@@H](CO)O2)CC1	7.7	11.5
Cc1noc(C)c1S(=O)(=O)Nc1cccc2c1O[C@H](CN(C)S(C)(=O)=O)[C@H](C)CN([C@H](C)CO)C2=O	6.9	8.7
CN1CCCCN2[C@@H](CO)[C@H](c3ccc(-c4cccnc4)cc3)[C@@H]2C1	17.5	1.8

Screening data as filed in PubChem BioAssay.

These rows are one share of the data; the hit share may differ from the screen's.
